Screening data deposited in PubChem by Johns Hopkins Ion Channel Center.
Kir21 inh: blocks the mouse Kir2.1 inward-rectifier potassium channel. P35561. HEK293-Kir2.1, FluxOR thallium flux fluorescence; active compounds read low. B-score at 10 µM. hit rate 0.85% among 310,000. AID 1672;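 active = fluorescence ratio B-score at or below minus 3 SD of library scores, with starting-brightness B-score within 2 SD, cut at about -4.2 in these data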;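 note: channel flux triggered by added potassium and thallium sulfate stimulus; B-score of peak minus minimum fluorescence over baseline after thallium stimulus; more negative B-score means stronger Kir2.1 block with less thallium influx; some compounds called inactive have numbers as strong as hits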
Target sequence (P35561 whole entry, looked up): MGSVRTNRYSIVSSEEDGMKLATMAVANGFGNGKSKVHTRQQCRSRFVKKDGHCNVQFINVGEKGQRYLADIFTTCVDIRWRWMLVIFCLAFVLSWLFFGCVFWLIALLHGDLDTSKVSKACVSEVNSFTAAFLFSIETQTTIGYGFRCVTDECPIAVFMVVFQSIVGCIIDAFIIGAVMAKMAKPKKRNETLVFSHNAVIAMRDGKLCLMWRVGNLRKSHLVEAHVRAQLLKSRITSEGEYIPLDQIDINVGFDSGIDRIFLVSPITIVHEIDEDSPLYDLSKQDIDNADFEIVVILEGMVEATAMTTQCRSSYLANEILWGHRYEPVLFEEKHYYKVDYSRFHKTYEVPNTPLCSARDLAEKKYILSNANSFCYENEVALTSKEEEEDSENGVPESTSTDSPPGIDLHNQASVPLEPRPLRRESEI
* = called active by the depositor. Not all compounds are listed, and most or all hits are left out here.

structure	Kir21 inh
COc1ccc(C2CC(=O)C3=C(C2)Nc2ccccc2N(C(=O)C2CC2)C3c2cccnc2)cc1OC (centres undefined)	-1.2
Cc1nc2sc(C(N)=O)c(N)c2c(C)c1CC(=O)c1ccccc1	-1.5
O=C(NNS(=O)(=O)c1ccccc1)c1cc2cc3ccccc3nc2s1	0.79
Cc1ccc(-c2ccc(=O)n(Cc3ccc(F)cc3Cl)n2)cc1	-1.2
O=C1CSC(=Nc2ccc(F)cc2)N1	-0.29
CCOC(=O)C1Nc2ccccc2C2c3ccccc3CC12 (centres undefined)	-2.3
O=C(Cc1ccc(S(=O)(=O)N2CCCC2)s1)Nc1nc2c(s1)CCCC2	1.4
Cc1csc(NC(=O)CSC2=NS(=O)(=O)c3cc(F)ccc3N2)n1	1.1
O=C(CCN1CCN(C/C=C/c2ccccc2)CC1)Nc1ccccc1	-0.15
Cc1ccc(CNS(=O)(=O)c2ccc(-c3cnc(C4CC4)o3)cc2)cc1	0.42
N/C(Cc1ccccc1Sc1ccccc1)=N\O	-1.1
CCSc1nnc(NC(=O)c2cccnc2Cl)s1	-1.5
COc1ccccc1OCC(=O)Nc1ccc2c(c1)OCCO2	-0.21
CC1CN(C(=O)c2ccccc2)c2ccccc2NC1=O (centres undefined)	-1.7
CCOC(=O)c1ccc2[nH]c(C)c(CCC(C)=O)c(=O)c2c1	-1.1
CS(=O)(=O)Nc1ccc(C(=O)N2CCN(c3ccccc3)CC2)cc1	0.99
CN(C(=O)COC(=O)c1ccc2c(=O)n3c(nc2c1)CCC3)c1ccccc1	0.9
CCOC(=O)c1c(C)nc2c(c1C)c(=O)oc1ccccc12	1.4
O=C(OCC(=O)N1CCN(S(=O)(=O)c2ccccc2)CC1)c1ccc([N+](=O)[O-])o1	1
O=C1C2C(C(=O)N1c1ccccc1)N1CCCN1C2c1ccccc1 (centres undefined)	2.4
CCN(CC(=O)Nc1ccccc1C(F)(F)F)C(=O)Cc1ccccc1	-1.1
COc1ccc(CCC(=O)Nc2nc3ccccc3[nH]2)cc1	-2
COC(=O)C(C)Oc1ccc2c(c1)O/C(=C\c1ccco1)C2=O (centres undefined)	0.06
CC(NC(=O)Nc1cccc([N+](=O)[O-])c1)c1ccc2c(c1)OCO2 (centres undefined)	-0.28
O=C(CCCCCn1c(=S)[nH]c2cc3c(cc2c1=O)OCO3)NCCc1ccccc1	-0.18
CC(C)CC(OC(=O)c1nsc(Cl)c1Cl)C(=O)NCC1CCCO1 (centres undefined)	0.76
CC(=O)N1CCN(c2cc(N3CCc4ccccc4C3)c(F)cc2[N+](=O)[O-])CC1	0.02
CCOC(=O)C(C(=O)OCC)C1OC(=O)c2cc3c(cc21)C(=O)OC3C(C(=O)OCC)C(=O)OCC (centres undefined)	1.7
Cc1cc(Cl)ccc1N(CC(=O)NCc1ccccc1)S(C)(=O)=O	0.01
COCCCNC(=O)CN(Cc1ccc(Cl)cc1)S(C)(=O)=O	0.74

The last three entries of the section before lead into the next:
structure	Kir21 inh
CCOC(=O)C(C(=O)OCC)C1OC(=O)c2cc3c(cc21)C(=O)OC3C(C(=O)OCC)C(=O)OCC (centres undefined)	1.7
Cc1cc(Cl)ccc1N(CC(=O)NCc1ccccc1)S(C)(=O)=O	0.01
COCCCNC(=O)CN(Cc1ccc(Cl)cc1)S(C)(=O)=O	0.74
N/C(COc1ncn(-c2ccccc2)n1)=N\S(=O)(=O)c1ccccc1	1.1
CC(OC(=O)CNC(=O)c1ccc2c(c1)OCO2)C(=O)NCCC1=CCCCC1 (centres undefined)	-0.18
CC1CCN(C(=O)c2ccc(S(=O)(=O)N3CCOCC3)cc2)CC1	0.01
CN(C)c1ccc(NC(=O)c2sc(SCC(=O)Nc3nccs3)nc2N)cc1	0.02
Nc1[nH]ncc1-c1ccc(Cl)cc1	0.01
COc1ccc(NC(=O)C2CCN(C(=O)Nc3ccc(C)cc3)CC2)cc1OC	-1.2
CCCc1cc2nnc(SCC(=O)N(C)C3CCCCC3)n2c(N)n1	-0.68
O=C(O)c1cccc(N=C2NC(=O)C(CO)(CO)S2)c1	-0.72
Cc1cc2nc(N3C(=O)CNC3=S)sc2cc1C	0.09
O=C(CSCc1c(Cl)cccc1Cl)NCC1CCCO1 (centres undefined)	0.09
COc1cc(-c2c(NC(=O)c3ccco3)oc3c(C)cccc3c2=O)cc(OC)c1OC	0.05
Cc1cccc(C)c1NC(=O)CN(C)C(=O)CSCc1c(C)noc1C	-0.34
CCCCN(C)Cc1c(C)[nH]c2c(Cl)cccc2c1=O	-1
COc1ccc2c(c1)C(C)(CCN)C(=O)N2C (centres undefined)	0.97
CN1CCN(CC(=O)c2cc(C(C)(C)C)c(O)c(C(C)(C)C)c2)CC1	-0.67
CCOc1ccc(NC(=O)CN(C)C(=O)c2cc(S(=O)(=O)N3CCCCC3)ccc2C)cc1OCC	-1.3
O=C(NCc1cccnc1)c1ccc(COc2ccc(Cl)cc2)cc1	-1.2
O=C(COc1cc(Cl)ccc1Cl)Nc1ccc2c(c1)CCC2	0.19
O=C(CCC(=O)c1cccs1)OCc1nnc(-c2ccccc2)o1	0.06
CC(NC(=O)OC1CCCCC1)N1C(=O)C2C3C=CC(C3)C2C1=O (centres undefined)	-0.01
Cc1cccc(NC(=O)CCN2C(=O)c3ccccc3C2=O)n1	-2.1
COc1ccc(OCCC(=O)OCC(=O)NCCc2ccccc2)cc1	-0.99
CCN(c1ccccc1)S(=O)(=O)c1cc2c3c(c1)C(C)C(=O)N3CCC2 (centres undefined)	0.08
Cc1ccc2nc(-c3ccc4c(c3)OCCO4)cn2c1	0.34
Cc1cc(C)nc(OC(C(=O)O)C(OCCc2ccccc2)(c2ccccc2)c2ccccc2)n1 (centres undefined)	0.65
COc1cc2c(C(=O)Nc3ccccc3F)cn(C)c(=O)c2cc1OC	0.78
CN=C(Nc1cccnc1)c1cccc(C(F)(F)F)c1	-0.99
COc1ccc(C(=O)Nc2cc3c4c(c2)C(C)C(=O)N4CCC3)c(OC)c1 (centres undefined)	0.16
O=C(Nc1ccc(Cl)c(Cl)c1)Nc1cc(C(=O)N2CCOCC2)ccc1N1CCCCC1	-0.01
CCOc1ccc(NC(=O)c2cccc3c2C(=O)N(CCOC)C3)cc1	-0.49
CC(=O)c1c(C)[nH]c(C(=O)Nc2nc(-c3ccccc3)c(C)s2)c1C	-0.1
COc1ccc(S(=O)(=O)N2CCCC(C(=O)NCc3cccnc3)C2)cc1 (centres undefined)	0.88
O=C1c2ccccc2C(=O)N1CCCc1c[nH]c2ccccc12	-3.6
COc1ccc(N(C)C(=O)c2onc3c2CCCC3)cc1	0.97
O=C(c1c(F)cccc1Cl)N1CCN(c2ccccn2)CC1	1.3
CCOC(=O)N1CCc2c(sc3nc[nH]c(=O)c23)C1	-2
COc1ccc2ccccc2c1/C=N/NC(=O)c1cccc([N+](=O)[O-])c1	-0.21
Cc1ccc(-c2noc(CCC(=O)NC3CC3)n2)cc1	-0.7
CCCCC1=CC2=CC(=O)C(C)(OC(=O)CC)C(=O)C2=CN1CCN1CCOCC1 (centres undefined)	0.03
COc1ccc(OC)c(-n2cnnn2)c1	0.09

Some values from the results shown:
Kir21 inh with COc1ccc2ccccc2c1/C=N/NC(=O)c1cccc([N+](=O)[O-])c1 stands at -0.21
Kir21 inh with O=C1c2ccccc2C(=O)N1CCCc1c[nH]c2ccccc12 stands at -3.6

The listing continues.
structure	Kir21 inh
Cc1ccc2nc3c(cc2c1)c(C)nn3-c1ccccc1	-0.95
COC(=O)c1cc(S(=O)(=O)Nc2c(C)cccc2C)cn1C	0.04
CSc1cccc(CNC(=O)CC2C(=O)NCCN2CC(C)(C)C)c1 (centres undefined)	0.32
CCNC(=O)Cc1ccc(NS(=O)(=O)c2ccc(F)cc2)cc1	1.1
CCOc1ccc(C(=O)NCCCn2ccnc2)cc1	0.35
O=S(=O)(c1ccc(OCC(O)CN2CCc3ccccc3C2)cc1)N1CCOCC1 (centres undefined)	-2.2
O=C(NCC(c1ccco1)N1CCc2ccccc2C1)C(=O)Nc1ccccc1F (centres undefined)	1.8
CC(=O)c1ccc(OC(=O)N(c2ccccc2)c2ccccc2)cc1	-1.1
O=C(N/N=C/C(Br)=C/c1ccccc1)C1CC1	-0.12
Fc1ccc(N/N=C2/CC(c3ccccc3)Oc3ccccc32)c(F)c1 (centres undefined)	1

Reformatted as labelled records: four of the compounds above
CCOc1ccc(C(=O)NCCCn2ccnc2)cc1
- Kir21 inh: 0.35
CCNC(=O)Cc1ccc(NS(=O)(=O)c2ccc(F)cc2)cc1
- Kir21 inh: 1.1
O=C(NCC(c1ccco1)N1CCc2ccccc2C1)C(=O)Nc1ccccc1F (centres undefined)
- Kir21 inh: 1.8
Fc1ccc(N/N=C2/CC(c3ccccc3)Oc3ccccc32)c(F)c1 (centres undefined)
- Kir21 inh: 1

Remaining list, next part:
structure	Kir21 inh
CC(C)(C)N(Cc1ccccc1)C(=O)c1ccc(Br)o1	0.58
COc1ccc(N(CC(=O)NCc2ccccc2Cl)S(=O)(=O)c2c(C)n[nH]c2C)cc1	0.43
O=C(CNC(=O)c1ccco1)Nc1ccc(F)c(Cl)c1	-0.4
CCOC(=O)N1CCN(C(=O)c2c(O)c3cccc4c3n(c2=O)CC4)CC1	1.2
Cc1ccc(N(CC(=O)N/N=C/c2ccc(OC3CSC3)cc2)S(=O)(=O)c2ccccc2)c(C)c1	3.2
CC(=O)NCCn1c(SCC(=O)OCc2ccccc2)nc2ccccc2c1=O	-3.1
O=C(Oc1ccccc1C(=S)N1CCCCC1)c1cc([N+](=O)[O-])cc([N+](=O)[O-])c1	0.32
CCC(c1nnnn1Cc1ccco1)N(Cc1ccccc1OC)Cc1cc2cc(C)ccc2[nH]c1=O (centres undefined)	-0.12
COc1ccc(-c2c(C)oc3c(CN4CCCCC4C)c(O)ccc3c2=O)cc1OC (centres undefined)	0.91
CSc1nc(C)cc(OCC#N)n1	0.01

Next results
Compound | Kir21 inh
O=C1CCC(C(=O)N2CCC(O)(c3ccccc3)CC2)CN1CCc1ccccc1 (centres undefined) | 0.08
CCc1ccc(N2CC(C(=O)Nc3ccc(S(=O)(=O)N4CCCCC4)cc3)CC2=O)cc1 (centres undefined) | 2.6
O=C(NC(=S)Nc1ccc(Cl)c(C(=O)O)c1)c1ccc(OCc2ccccc2)cc1 | 2.5
CCOC(=O)C1CCCN(C(=O)CC(c2ccccc2)c2ccccc2)C1 (centres undefined) | -1.2
C[C@]12CC[C@@H]3c4ccc(O)cc4CC[C@H]3[C@@H]1CC[C@@H]2OC(=O)CCC1CCCC1 | 0.03
Cc1occc1-c1nnc(SCC(=O)Nc2nc3ccccc3s2)o1 | 0.33
CC(=O)Nc1ccc(S(=O)(=O)N2CCC(N(C)CCC(C)C)CC2)cc1 | -0.22
CCN1c2ccccc2N(C)C1(C)c1ccccc1 (centres undefined) | 0.54
COc1ccccc1/C=C/c1ccc2cccc(O)c2n1 | 0.24
COC(=O)CN1C(=O)C(C)(C)Oc2ccc(C(=O)NC3CCCC3)cc21 | 0.06
Cc1onc(-c2ccccc2)c1C(=O)Oc1ccccc1 | -1.1
CCN(CC)S(=O)(=O)c1ccc(S(=O)(=O)NCc2cccs2)cc1 | 1
CCCC(=O)NCc1ccc2c(c1)cc(C)n2C | 0.16
N#Cc1ccc(OCC(=O)OCC(=O)Nc2ccc(N3CCOCC3)cc2)cc1 | -1.4
C=C(C)CSc1nc2nc(C)c(Br)cc2[nH]1 | -1.6
COc1ccc(CCNC(=S)NCc2ccc(Cl)c(Cl)c2)cc1OC | -1.5
CCOc1cc(/C=C2/C(=O)N(c3ccccc3)N=C2C)ccc1OC(=O)c1ccco1 | -1.9
CCOC(=O)c1c(C)[nH]c(NC(=O)Nc2ccc(NC(C)=O)cc2)c1C | -0.05
CC(=O)NC(=S)Nc1ccc(S(=O)(=O)N2CCOCC2)cc1 | -0.05
Cc1cc(NC(=O)c2cc(C(C)(C)C)oc2C)no1 | 0.27
Cc1cc(OCc2nnc(SCC(=O)O)n2-c2ccccc2)ccc1Cl | -0.91
Cc1ccc(O)c(NC(=O)c2noc3c2CCc2ccccc2-3)c1 | 0.04
O=C(Nc1nnc(COc2ccc(Cl)cc2)s1)C1CCCO1 (centres undefined) | -0.07
Cc1ccc(OC(=O)NC2CCS(=O)(=O)C2)cc1C (centres undefined) | 1
CCSc1nc2ccccc2c(=O)n1-c1c(C)n(C)n(-c2ccccc2)c1=O | 0.76
COc1ccc(NC(=O)CSc2nnc3ccc(-c4ccccn4)nn23)cc1OC | 0.29
NCCCC[C@@H]1NC(=O)[C@H](CCC(=O)O)NC(=O)c2cc([N+](=O)[O-])cc(I)c2NCC[C@@H](C(N)=O)NC1=O | 0.15
Clc1ccc(SCCCCn2ccnc2)cc1 | 0.07
O=[N+]([O-])c1ccc(Cl)c(S(=O)(=O)n2ccnc2)c1 | 0.6
Cc1ccc2cc(C#N)c(SCC(=O)N3CCCc4ccccc43)nc2c1 | -1.5
O=C(Nc1ccc(S(=O)(=O)NCCc2ccccc2)cc1)c1ccc(Br)o1 | -1.3
O=C(NCCN1CCOCC1)c1ccc(CS(=O)(=O)c2ccc(Br)cc2)o1 | 0.04
Cc1ccc(C)c(OCCC(=O)OCC(=O)Nc2cccnc2Cl)c1 | 1.9
CCOc1ccc(C(=O)NC2CCN(C(=O)Nc3ccccc3OC)CC2)cc1 | -1
Cc1cccc(N2CCN(C(=O)CN3C(=O)C4CC=CCC4C3=O)CC2)c1C (centres undefined) | -0.15
Fc1ccc(Cn2nnnc2CN2CCc3ccccc3C2)cc1 | -2.5
CC(Oc1ccc(-n2cnnn2)cc1)C(=O)O (centres undefined) | 0.26
COc1ccccc1OCC(=O)NCc1n[nH]c(=O)c2ccccc12 | -0.61
Cc1ccc(C)c(NC(=O)CN(C)C(=O)c2cc3ccccc3o2)c1 | -0.37
CCCOc1cccc(NC(=O)OC2CCN(C)CC2)c1 | 0.47
O=c1cc(CSCc2ccc(Cl)cc2)[nH]c(=O)[nH]1 | -0.17
Cc1cc(S(=O)(=O)Nc2ccc(C(=O)NCc3ccncc3)cc2)ccc1F | 0.9
